Source: PubChem (National Center for Advancing Translational Sciences (NCATS))
RE007 growth inh: less growth of the S. pombe RE007 Vpr strain; 360,000 compounds, 0.21% hits; Potency, µM (highest dose often 92.2 µM), without a hit: at the highest dose activity change, negative = less growth; S. pombe RE007 Vpr strain, BacTiter-Glo ATP luminescence, 24 h; control for the full effect not named in the record; active = well fitted falling curve with a large enough effect; inconclusive = small, poorly fitted or top-dose-only effect; inactive = no such curve, though single readings can be large or run the other way;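 also: % is scaled to controls: 0 for no effect and ±100 for the full control effect; nearly all actives have a fitted effect of over 50% in size; the assay follows cell death caused by Vpr and the record does not say whether a fall means rescue or toxicity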
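Fission yeast RE007 carrying one integrated HIV-1 vpr copy, seeded at OD 0.01 in PMG+AL medium with 23 nL pinned compound. Grown 24 h at 30 degrees; viability read by BacTiter-Glo luminescence after 5 min.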
NS1 function inh: blocks influenza NS1 protein function; S. cerevisiae slowed by influenza A NS1, growth recovery by OD600; Potency, µM (doses to about 46.1 µM), for the others: top-dose activity, positive = more growth; 270,000 compounds, 0.4% hits; AID 2326; active means well fitted rising curve with a large enough effect; inconclusive means small, poorly fitted or top-dose-only effect; inactive means no such curve, though single readings can be large or run the other way; also: nearly all actives have a fitted effect of over 50% in size
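Growth recovery, yeast-based: influenza A NS1 expressed in S. cerevisiae causes slow growth, and suppressors are detected by OD600. The parent strain without NS1 is used as positive control.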
MARV entry inh: Marburg virus entry inhibition; 300,000 compounds, 1.8% hits; AID 540276; Marburg virus pseudotyped entry inhibition, cell reporter; control for the full effect not named in the record; about a third of the inactives were read at about 46 µM; Potency, µM (top dose mostly 37.8 µM), for inactives: top-dose activity change, negative = inhibition, hits mostly inhibitors; active = well fitted inhibition curve with a large enough effect; inconclusive = small, poorly fitted or top-dose-only effect, or effect the other way; inactive = flat fitted curve, though single readings scatter; tested in HEK293 cells; about a fifth of its hits are not listed in these tables; also: % is scaled to controls: 0 for no effect and ±100 for the full control effect; luciferase read-out
Cruzain inh Det: cruzain (T. cruzi) inhibition with detergent. P25779. purified cruzain, Z-FR-AMC fluorescence, 0.01% Triton. Potency, µM, for the others: max response, negative = inhibition, hits mostly inhibitors. 200,000 compounds, 0.43% hits. AID 1478;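 also: plate controls were neutral wells for no effect and buffer without enzyme for full effect; nearly all actives have a fitted effect of over 40% in size; top concentration of the series not given in the record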
Target sequence (P25779 123-467 limits assumed): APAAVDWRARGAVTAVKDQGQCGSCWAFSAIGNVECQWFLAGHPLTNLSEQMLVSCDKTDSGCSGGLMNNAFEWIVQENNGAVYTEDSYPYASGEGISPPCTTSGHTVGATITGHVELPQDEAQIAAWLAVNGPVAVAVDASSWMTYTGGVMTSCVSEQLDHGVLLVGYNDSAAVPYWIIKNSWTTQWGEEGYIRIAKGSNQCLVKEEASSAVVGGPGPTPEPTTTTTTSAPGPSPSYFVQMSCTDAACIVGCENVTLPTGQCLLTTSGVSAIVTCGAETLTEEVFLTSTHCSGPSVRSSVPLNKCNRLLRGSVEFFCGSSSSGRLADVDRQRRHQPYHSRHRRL
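Detergent-containing arm of a paired screen for aggregation-based inhibition: 0.01% Triton X-100 present. Cruzain at 1.5 nM cleaved 2 uM Z-FR-AMC at pH 5.5 with 5 mM DTT; AMC fluorescence gain over 60 s measured activity.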
Lassa entry inh: blocks Lassa virus binding to or entry into cells; Potency, µM (doses to about 37.9 µM), without a hit: at the top dose activity change, negative = inhibition, hits mostly inhibitors; Lassa virus pseudotype entry inhibition, cell reporter; control for the full effect not named in the record; 300,000 compounds, 1.2% hits; active means well fitted inhibition curve with a large enough effect; inconclusive means small, poorly fitted or top-dose-only effect, or effect the other way; inactive means flat fitted curve, though single readings scatter; tested in HEK293 cells; also: % is scaled to controls: 0 for no effect and ±100 for the full control effect; nearly all actives have a fitted effect of over 50% in size; luciferase read-out
Cruzain noTriton: cruzain (T. cruzi) inhibition without detergent; P25779; purified cruzain, Z-FR-AMC fluorescence, no detergent; Potency, µM, without a hit: max response, negative = inhibition, usual class: inhibitors; 200,000 compounds, 2.3% hits; AID 1476;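 also: plate controls were enzyme without inhibitor for no effect and buffer without enzyme for full effect; nearly all actives have a fitted effect of over 40% in size; top concentration of the series not given in the record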
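Purified cruzain at 1.5 nM, pre-incubated 15 min with compound at room temperature in 100 mM sodium acetate pH 5.5, 5 mM DTT, 0.00005% Triton X-100. Reaction started with 2 uM Z-FR-AMC; AMC fluorescence increase over 60 s gives rate.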
StopGo reporter: FMDV 2A StopGo reporter, luciferase signal. human cells with a luciferase reporter of 2A StopGo recoding; control for the full effect not named in the record. Potency, µM (doses to about 57.9 µM), inactives show at the top dose signal change, negative = less light. 410,000 compounds, 1.2% hits; active = well fitted falling curve with a large enough effect; inconclusive = small, poorly fitted or top-dose-only effect; inactive = no such curve, though single readings can be large or run the other way; tested in HEK293T cells; also: % is scaled to controls: 0 for no effect and ±100 for the full control effect; nearly all actives have a fitted effect of over 45% in size; luciferase light after 4 h
SARS PLP yeast: inhibitors of SARS-CoV papain-like protease in yeast. AID 485353. Potency, µM (titrated, usually from 32.9 µM), inactives show at the top dose activity, positive = growth rescue. S. cerevisiae expressing SARS-CoV PLpro, growth rescue; control for the full effect not named in the record. 330,000 compounds, 0.19% hits; active means well fitted rising curve with a large enough effect; inconclusive means small, poorly fitted or top-dose-only effect; inactive means no such curve, though single readings can be large or run the other way; also: 0% is about no effect; nearly all actives have a fitted effect of over 55% in size; growth read by luminescence after 48 h
An asterisk follows results filed as active; ? = inconclusive; . = not tested or not shown; & = joins results of further samples; [ ] = remark or other dose. Unless noted, calls follow the shape of the dose curve; as a rule, active = well fitted curve in the direction sought with a large enough effect; inconclusive = small, poorly fitted or top-dose-only effect, or another doubt; inactive = no such curve, though single readings can be large; an effect the other way counts as inactive or inconclusive. Potency is read from the fitted curve at half-maximal effect.

SMILES	RE007 growth inh	NS1 function inh	MARV entry inh	Cruzain inh Det	Lassa entry inh	Cruzain noTriton	StopGo reporter	SARS PLP yeast
Cc1nc2nc(SCC(=O)NC3CCC(C)CC3)nn2c(C)c1Cc1ccccc1 (stereo not given)	.	.	.	-0.5%	3%[46.1 µM]	7%	-17%	.
Cc1ccc(C)c(OCC(=O)N/N=C/c2ccsc2)c1	-3%	6%	-8%	2.4%	0%	-8%	9%	1%
CCS(=O)(=O)c1ccc2oc(SCC(=O)N3CCCCC3)nc2c1	-13%	.	-4%[46.1 µM]	.	-14%	.	-19%	-1%
COc1ccc(NC(=O)c2cccs2)cc1OC	-4%	-4%	1%&1%	0.4%	-1%	-10%	41%[activator]	-3%
CC1(CCc2ccc(O)cc2)NC(=O)NC1=O (stereo not given)	2%	-14%	-19%	11%	11%	2%	-2%	2%
CCOC(=O)c1c(NC(=O)Cn2nc(C(=O)O)c3ccccc3c2=O)sc2c1CCC(C)C2 (stereo not given)	19%	1%	0%[46.1 µM]	.	4%	.	-3%	0%
CC(C)C(=O)Nc1ccccc1N1CCN(C(=O)c2ccccc2)CC1	-11%	-2%	0%	4.6%	16%	1%	-18%	6%
Cc1ccccc1C(=O)Nc1c(C)nc(Nc2ccccc2)nc1Nc1ccccc1	.	.	?	-15%	-1%[46.1 µM]	-4%	?	.
CCOc1ccc(/C=C(\C#N)C(=O)Nc2cccnc2)cc1	-4%	16%	2%	-0.7%	1%	7%	3%	5%
COc1cc(C(=O)COC(=O)c2cc([N+](=O)[O-])ccc2N2CCOCC2)ccc1OC(F)F	-26%	.	-45%	.	-25%	.	?	-2%
CCOC(=O)C1CCN(C(=S)Nc2ccc(S(N)(=O)=O)cc2)CC1	12%	-5%	28%	-2.9%	-13%	?	-2%	6%
Cc1ccc2ccccc2c1NC(=O)c1ccco1	-7%	0%	.	.	.	.	-4%	0%
Clc1ccc(Nc2nc(-c3cccnc3)cs2)cc1	-4%	-2%	?	2.4%	1%	0%	8%	-28%
COc1cc(C2C(=O)N(C3CCCCCC3)CC(=O)N2Cc2ccccc2)ccc1OC(C)C (stereo not given)	.	.	.	0.4%	-21%[46.1 µM]	17%	-7%	.
O=C(NCC1CCCO1)C(C(=O)c1ccccc1)n1ccccc1=O (stereo not given)	18%	4%	1%	4.4%	7%	10%	16%	0%
N#CCC(=O)N/N=C/c1cn(Cc2ccccc2C#N)c2ccccc12	0%	6%	14%	.	?	.	-18%	0%
C(=N\N1CCN(Cc2cccc3ccccc23)CC1)/c1ccco1	-9%	14%	1%	3.3%	5%	-8%	?	-1%
COc1ccc(-c2c(C)c3cc(O)ccc3oc2=O)cc1OC	-14%	-4%	.	.	.	.	0%	1%
O=S(=O)(Nc1ccc(NS(=O)(=O)c2ccccc2)c(Cl)c1)c1ccccc1	17%	.	-24%[46.1 µM]	.	?	.	17%	.
Cc1ccccc1OCCSc1nc2ccc(NC(=O)c3cccc(F)c3)cc2s1	.	.	10%[46.1 µM]	-2.2%	17%[46.1 µM]	-13%	-4%	.
CCS(=O)(=O)N1CCCC(C(=O)NC2CCCCC2C)C1 (stereo not given)	22%	1%	2%	4.2%	-12%	1%	-2%	-5%
COc1ccc(OC)c(C(c2nnnn2CCc2ccccc2)N2CCC(C(N)=O)CC2)c1 (stereo not given)	5%	-9%	-4%[46.1 µM]	3.5%	-8%	3%	5%	6%
COCCNC(=O)C(c1ccc(F)cc1)N(C(=O)CCC(=O)Nc1nccs1)c1ccc(C)cc1 (stereo not given)	11%	0%	?	.	?	.	-10%	-1%
O=C(Cn1c(=O)oc2cc(S(=O)(=O)N3CCCC3)ccc21)N1CCc2ccccc2C1	-9%	10%	.	-1.0%	.	-12%	-19%	6%
COc1cc(CN2CCC(C(=O)NC3CCCC3)CC2)ccc1O	11%	?	5%&11%	4.9%	-4%	-5%	-4%	6%
C#CCOC(=O)Nc1ccc(=O)n(Cc2c(Cl)cccc2Cl)c1	-6%[3.69 µM]	4%	-29%	-2.3%	-15%	-6%	-19%	-7%
O=C(N/N=C/c1sc(N2CCCCC2)nc1-c1cccs1)c1cccnc1	-14%	12%	.	.	.	.	-17%	0%
COc1ccc(N(CC(=O)Nc2c(C)n(C)n(-c3ccccc3)c2=O)S(=O)(=O)c2ccccc2)cc1OC	-24%	-10%	?	-2.4%	12%	6%	28%	17%
Cc1ccccc1-c1noc(CCC(=O)NCCc2ccccc2)n1	-12%	-11%	.	.	.	.	-9%	1%
COC(=O)c1ccccc1NS(=O)(=O)c1c(C)noc1C	3%	-8%	1%[46.1 µM]	.	-1%[46.1 µM]	.	1%	-3%
COc1ccc(OC)c(NC2c3ccccc3C(=O)N2c2cccnc2)c1 (stereo not given)	-14%	-5%	.	-1.6%	.	-8%	-4%	?
Cc1cc(C)c(S(=O)(=O)NCCn2c(C)cc3ccccc32)c(C)c1	-3%	15%	.	-13%	.	-19%	66%[activator]	-10%
Cc1ccc(NC(=O)c2cc3c(CO)cnc(C)c3oc2=Nc2cccc(C(N)=O)c2)cc1	5%	4%	.	.	.	.	?	-1%
O=C(Nc1cccc(S(=O)(=O)N2CCCCC2)c1)c1ccc(OCC2CCCO2)cc1 (stereo not given)	-14%	.	.	.	?	.	?	0%
CC(C)Oc1ccc(C(=O)Nc2ccccc2N2CCOCC2)cc1	-4%	-2%	.	.	.	.	-9%	-2%
Oc1ccc(N=Nc2nccs2)c(O)c1	?	-46%	?	.	?	.	-3%	-8%
COc1ccccc1CNC(=O)C1CCN(S(=O)(=O)N2CC(C)CC(C)C2)CC1 (stereo not given)	?	-8%	-1%	-1.2%	-1%	-5%	.	3%
CC1CCCC(NC(=O)Cn2c(Cl)nc3c2c(=O)n(C)c(=O)n3C)C1C (stereo not given)	1%	.	-32%[46.1 µM]	.	?	.	1%	0%
CCCCNC(=O)c1cc2nc(-c3ccccc3)cc(C(F)(F)F)n2n1	10%	16%	.	.	.	.	-9%	26%
Cc1cccnc1NC(=O)CCc1c[nH]c2ccccc12	-3%	6%	8%[46.1 µM]	.	21%[46.1 µM]	.	-5%	-4%
OC1CNCc2cc3c(cc21)OCCO3 (stereo not given)	.	7%	8%	4.8%	.	0%	.	9%
O=C(CSc1nnc(-c2ccncc2)n1CC1CCCO1)Nc1cccc(O)c1 (stereo not given)	-7%	-27%	-7%	-0.4%	17%	-2%	-5%	16%
Cc1ccc(C(=O)Nc2ccc(F)cc2)o1	-1%	-2%	-5%	-1.0%	?	-4%	36%[activator]	-9%
FC(F)Oc1ccccc1/C=N/Nc1nc2ccccc2o1	1%	-26%	14%[46.1 µM]	.	0%	.	20%	0%
COc1cc(/C=C/C(=O)OCC(=O)c2c(N)n(C)c(=O)n(C)c2=O)ccc1OCC#N	-21%	.	6.3µM*	.	?	.	-15%	-1%
COc1ccc2nc3oc(C(=O)Nc4cccc(C(F)(F)F)c4)cc3cc2c1	.	.	.	0.6%	1%[46.1 µM]	-6%	-6%	.
CCOc1ccc(NC(=O)CSc2nnc(C(C)C)n2CC)cc1	0%	-1%	9%	1.0%	21%	7%	2%	10%
Cc1cc(C)n(Cc2ccc(NC(=O)c3ccc(COc4ccccc4Br)cc3)cc2)n1	-2%	22%	?	-0.5%	?	?	13µM*	0%
Cc1ccc(S(=O)(=O)N(C)CCCC(=O)N2CCOCC2)cc1	4%	5%	0%	-0.2%	10%	-7%	-3%	-20%
CCOC(=O)Cc1[nH]nc2c1C(c1cccc(OC)c1OC)C(C#N)=C(N)O2 (stereo not given)	-2%	4%	19%	-4.2%	5%	5%	-16%	-3%

The results go on:
SMILES	RE007 growth inh	NS1 function inh	MARV entry inh	Cruzain inh Det	Lassa entry inh	Cruzain noTriton	StopGo reporter	SARS PLP yeast
Cc1cn2c(nc(=O)c3cccnc32)s1	-17%	-4%	8%	-2.1%	-2%	-4%	-15%	13%
CCN1CCN(CCCNC(=O)CNC(=O)c2nn(-c3ccc(OC)cc3OC)c(=O)c3ccccc23)CC1	-15%	11%	0%[46.1 µM]	.	-2%[46.1 µM]	.	44%[activator]	-2%
O=C(Nc1ccc(OC(F)F)cc1)Nc1cccc(C(F)(F)F)c1	-16%	-209%	?	-7.4%	?	15%	0%	-39%
CC1CCCCN1CCCNC(=O)c1sc2ncccc2c1-n1cccc1 (stereo not given)	.	.	.	-4.4%	-1%[46.1 µM]	-3%	-4%	.
Cc1nn(C(=O)c2nn(C)cc2[N+](=O)[O-])c(C)c1Br	0%	-2%	1%[46.1 µM]	.	0%	.	-10%	-1%
CC(C)(C)c1ccc(NC(=O)COc2ccc(-n3ccnc3)cc2)cc1	-7%	-48%	?	-1.7%	?	2%	11µM*	-16%
COc1ccc(CCNC(=O)c2cc(-c3ccccc3O)n[nH]2)cc1OC	-24%[3.69 µM]	4%	-11%	-2.8%	-4%	3%	-18%	2%
COc1ccc(OC(=O)COc2cc(C)ccc2C)cc1	-12%	-3%	-2%[46.1 µM]	.	-9%[46.1 µM]	.	59%[activator]	17%
CCC(C)(C(=O)NC1CCCCC1)N(Cc1cccs1)C(=O)Cc1cccs1 (stereo not given)	1%	2%	-19%	-1.1%	4%	-2%	-14%	1%
O=C(Cc1ccc(F)cc1)N/N=C/c1ccccn1	-1%	-4%	-3%	-1.7%	-1%	-11%	13%	2%
CN(C)c1ccc(-c2noc(C3CCN(S(=O)(=O)c4ccc(C(=O)O)cc4)CC3)n2)cc1	4%	-9%	-30%	.	-16%	.	-23%	.
COc1ccccc1C1/C(=C(\O)c2ccc3c(c2)OCCO3)C(=O)C(=O)N1Cc1cccnc1 (stereo not given)	1%	8%	.	.	.	.	-5%	5%
Cc1ccc(-n2nc(C(=O)N3CCC(C)CC3)c(=O)n(C)c2=O)cc1	.	.	.	-3.0%	12%[46.1 µM]	-1%	-11%	.
